From PubChem
Mtb hypoxia inh: inhibitors of hypoxia-regulated fluorescent reporter in Mycobacterium tuberculosis; actives 0.1% (n = 300,000); M. tuberculosis hypoxia-regulated fluorescent reporter, fluorescence; AID 1159583; fluorescence inhibition, % (no concentration beside the values);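 active = 35 to 45% if threefold the growth effect, above 45% if 1.5-fold the growth effect; inactive = the rest, general growth blockers included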;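 note: wells of about 50 µL received 100 nL stock; 0% = vehicle wells and 100% = reference inhibitor wells; whole bacteria with a GFP reporter of the hypoxia response; strong numbers were not always called active; many hits fall short of the cut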
ugtP null kill: kills S. aureus RN4220 lacking UgtP. actives 0.54% (n = 330,000). S. aureus RN4220 ugtP deletion, OD600 growth, 16 h; some inactives read as strong as hits. growth inhibition, % (test concentration not listed);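 active = z-score under -3 and OD600 up to 0.15 on both plates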;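 note: plate controls were untreated wells for no effect and antibiotic for full effect; wells of about 80 µL received 100 nL stock; the first replicate is given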
BJeLR lethal: kills HRASV12-expressing BJeLR cells; inhibition, % (no concentration beside the values); actives 0.17% (n = 300,000); BJeLR (HRASV12) viability, CellTiter-Glo ATP luminescence, 48 h; reference of the scale not given here;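 active = replicate mean above 50%; inconclusive = above 50% but judged a plate artefact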;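 note: 50 nL library stock added to about 25 µL; numbers are from one replicate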
Sa RN4220 lethal: kills Staphylococcus aureus RN4220; actives 0.33% (n = 330,000); S. aureus RN4220 growth, OD600, 16 h; inhibition, % (test concentration not listed);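 active = z-score of -3 or lower and OD600 up to 0.18 on both plates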;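 note: plate controls were untreated cells for no effect and reference antibiotic for full effect; stock transfer was 100 nL into about 80 µL; one replicate is shown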
PrP 5UTR inh: inhibition of PrP 5' UTR reporter expression | cell-based PrP 5' UTR mRNA reporter, plate reader | inhibition, % (no concentration beside the values) | actives 0.35% (n = 340,000) | AID 488862;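 active = every replicate at 50% or more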;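 note: 0 = median of the neutral control wells; tested in H4 reporter cells; numbers are from one replicate; inactives centre near -14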
Autofluor counter: compound fluorescence in toxin protease inhibitor counterscreen | compound autofluorescence counterscreen, microsphere flow cytometry; stronger effect = higher value | fluorescence intensity (concentration not given with the values) | actives 3.1% (n = 360,000) | AID 624483;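 active = at least 3 SD above the mean of all compounds, about 16000 in these data; inconclusive = too few beads counted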;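 note: 100 nL of 1 mM stock went into each well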
Mtb hypoxia inh growth: further read-out of Mtb hypoxia inh, marked with its call; growth inhibition, %; measured here: M. tuberculosis growth (absorbance);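 0% = vehicle and 100% = reference antibiotic; read after six days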
* marks the source's active call; other numbers are inactive results; ? = inconclusive; . = no result given; & = joins results of further samples.

SMILES	Mtb hypoxia inh	Mtb hypoxia inh growth	ugtP null kill	BJeLR lethal	Sa RN4220 lethal	PrP 5UTR inh	Autofluor counter
CSc1nc2nccc(-c3ccc(Oc4ccccc4)cc3)n2n1	-2.5	12.5	-16.8	.	4.6	-5.3	2333
CC(NC1CCCCC1)C(=O)NN=C(c1ccccc1)c1ccccc1 (stereo not drawn)	.	.	.	0.2	.	-12.9	4444
CC(C)N(Cc1ccccc1)C(=O)COC(=O)C1CCN(S(=O)(=O)c2ccc3c(c2)OCCO3)CC1	-1.3	7.4	-1.1	-2.7	-0.3	-29.3	5567
C=CCOC(=O)C1=C(C)NC(SC)=C(C#N)C1c1ccc(OCC)cc1 (stereo not drawn)	-1.1	15.4	91.4*	3.7	-2.0&-3.8	-3.2&-22.4	?
CC1CCCCN1C(=O)C1CCCN(S(=O)(=O)c2cccc3nsnc23)C1 (stereo not drawn)	-4.8	3.8	5.6	-7.2	2.9	-16.2	5201
Cc1ccccc1CN1C(=O)c2ccccc2S1(=O)=O	2.5	5.1	5.0	-4.2	3.3	-21.3	3267
C=CCN(C(=O)CNC(=O)c1ccco1)C(C(=O)NC1CCCCC1)c1cccnc1 (stereo not drawn)	11.1	-3.2	2.6	-5.6	3.4	1.3	6065
CC(Sc1nc(N2CCOCC2)c2c(c1C#N)CC(C)(C)OC2)C(=O)Nc1ccccc1 (stereo not drawn)	-8.8	5.0	16.8	-1.6	12.3	-30.4	8133
COc1ccc(Cl)cc1-c1csc(N)n1	12.8	1.0	-3.3	1.7	6.4	-12.6	4435
COC(=O)C1CC2CCC(O)CC2N1Cc1ccccc1OS(=O)(=O)c1ccc(C)cc1 (stereo not drawn)	0.8	7.6	2.1	.	7.4	.	.
COc1cccc(OC)c1C(=O)NCC12CC3CC(C1)CC(CNC(=O)c1c(OC)cccc1OC)(C3)C2	-3.3	-0.5	5.0	1.4	6.7	-11.6	3694
O=C(O)c1cc(S(=O)(=O)N2CCCCC2)ccc1Cl	9.7	4.7	3.4	-15.2	1.7	-8.0	3030
CC(=O)c1cccc(N(CC(=O)N2CCCCC2)S(C)(=O)=O)c1	11.4	3.4	0.9	6.4	6.4	-16.9	24555*
COc1cc(CCC(=O)N2CCN(c3ccccc3Cl)CC2)cc(OC)c1OC	0.8	-2.0	2.2	-7.4	2.8	-11.4	4103
Cc1c(C(=O)N(C)C)c2cc(Cl)ccc2n1O	-3.5	2.3	15.1	-5.1	6.1	-7.7	1995
COc1cc(Cl)c(C)cc1NC(=O)COC(=O)CCc1nc2ccccc2c(=O)[nH]1	8.6	2.4	14.7	3.5	4.4	-26.9	?
Cc1sc2nc(-c3cccs3)oc(=O)c2c1C	3.8	5.6	-2.4	-0.5	3.5	-17.3	4069
COc1ccc2[nH]c(=O)c(CN(CCCN3CCOCC3)C(=O)NCc3ccccc3)cc2c1	9.4	10.4	-9.7	-5.6	-14.4	-15.7	3443
O=C(NCCc1nc2ccccc2[nH]1)/C(=C/c1ccc2c(c1)OCO2)NC(=O)c1ccc(Cl)cc1Cl	-14.3	2.3	-7.1	-4.3	10.7	-19.1	2697
CN(Cc1ccccc1)C(=O)c1ccc2c(c1)OCO2	10.0	9.0	9.3	0.9	6.2	-14.3	4306
COc1cc(/C=N/Nc2nc3ccccc3[nH]2)cc(OC)c1O	.	.	.	-11.8	.	-15.6	2623
CCOc1ccc(NC(=O)CN(C)C(=O)Cc2sc(C)nc2-c2ccc(F)cc2)cc1OCC	1.0	-3.1	-0.8	.	2.9	-24.0	8364
CCC(=O)Nc1ccc2c(c1)ncn2-c1ccccc1C	2.9	-3.4	-0.3	14.2	-0.8	-21.2	3369
C=CCn1c(SCC(=O)N(CC)C2CCS(=O)(=O)C2)nc2ccccc2c1=O (stereo not drawn)	13.3	4.5	6.4	-11.9	5.7	-24.6	4498
Fc1ccc(-c2csc(Nc3ccccn3)n2)c(F)c1	-5.6	0.5	-9.7	-15.3	-5.3	-71.8	3238
COC(=O)C1=C(C)N(c2ccc(Cl)cc2)C(=Cc2cccs2)C1=O	4.3	8.3	-14.4	.	21.1	.	.
O=C(CSc1ccccn1)Nc1nc2ccc(Br)cc2s1	6.2	7.3	0.6	-13.2	-2.5	-10.4	9630
O=C(O)CN1C(=O)/C(=C\c2ccccc2OCc2ccc(Cl)cc2Cl)SC1=S	-0.7	9.5	64.1	6.2	57.9	14.9	4070
COc1ccc(C=NNC(=O)c2ccc(CN3c4cccc5cccc(c45)S3(=O)=O)cc2)cc1	6.7	-2.1	-1.7	.	0.6	.	.
C=CCc1ccc(OCCCN2CCCC(C)C2)c(OC)c1 (stereo not drawn)	19.8	9.2	-2.7	-1.3	9.5	-16.3	9410
Cc1ccc(OCC(=O)Nc2nnc(S(=O)(=O)N3CCCCC3)s2)cc1	4.8	1.9	3.0	10.3	10.0	-9.0	5977
Cn1nccc1C(=O)OCC(=O)Nc1ccccc1Cl	-3.0	-0.3	-1.2	-7.5	2.1	-3.2	4495
COc1cc(C=NNC(=O)C(C)Nc2n[nH]c(=O)[nH]c2=O)ccc1O (stereo not drawn)	-0.7	-0.8	7.6	.	0.2	.	.
CC1CC1C(=O)N(C)CC(=O)Nc1ccc(Cl)c(C(F)(F)F)c1 (stereo not drawn)	10.3	-0.4	0.0	-0.3	2.1	-10.7	5634
Cc1[nH]c2ccccc2c1C=NNC(=O)Cc1cccs1	-5.3	4.2	-10.6	.	2.7	.	.
CSc1ncc(Cl)c(C(=O)NCc2cccnc2)n1	4.5	-5.8	0.6	-0.1	-0.5	-13.8	3834
CCOc1ccc(NC(=O)Nc2nnc(CC(=O)NCc3ccccc3)s2)cc1	11.1	1.1	-7.2	1.2	5.7	-0.5	2009
Cc1c(NS(=O)(=O)c2cc(C(=O)Nc3ccc(F)cc3Cl)ccc2Cl)c(=O)n(-c2ccccc2)n1C	1.8	-2.2	12.2	.	-2.2	-19.8	4173
Cc1nc(SCC(=O)Nc2cc(S(=O)(=O)N3CCOCC3)ccc2Cl)nc(C)c1C	1.2	-5.9	-3.1	.	-0.4	10.0	.
O=C(NN=Cc1ccc(Br)o1)/C(=C/c1ccc([N+](=O)[O-])cc1)NC(=O)c1ccccc1	7.0	7.0	-6.0	.	6.3	.	.
CCOc1ccccc1CN1CCN(C2CCOCC2)CC1CCO (stereo not drawn)	13.5	6.6	4.1	8.2	1.8	-16.4	3973
CC1=NN(C(=O)c2c(Br)cnn2C)C(O)(C(F)(F)F)C1 (stereo not drawn)	.	.	0.6	-3.1	17.5	-11.2	2712
CCN(CC)C(=O)CSc1nc(-c2ccccc2)cc(=O)[nH]1	9.0	2.0	6.6	-1.0	3.8	-21.0	4356
CN(C)S(=O)(=O)c1ccc(C(=O)NNC(=O)c2ccccc2-n2cccc2)cc1	5.0	-1.7	6.1	.	4.7	-15.7	2859
O=C(O)CCC(NC(=O)c1ccc(Cl)cc1)C(=O)O (stereo not drawn)	11.9	7.4	13.2	0.7	5.1	-14.4	4850

An excerpt of these results, bar-delimited:
mol | Mtb hypoxia inh | Mtb hypoxia inh growth | ugtP null kill | BJeLR lethal | Sa RN4220 lethal | PrP 5UTR inh | Autofluor counter
O=C(O)CN1C(=O)/C(=C\c2ccccc2OCc2ccc(Cl)cc2Cl)SC1=S | -0.7 | 9.5 | 64.1 | 6.2 | 57.9 | 14.9 | 4070
COc1ccc(C=NNC(=O)c2ccc(CN3c4cccc5cccc(c45)S3(=O)=O)cc2)cc1 | 6.7 | -2.1 | -1.7 | . | 0.6 | . | .
C=CCc1ccc(OCCCN2CCCC(C)C2)c(OC)c1 (stereo not drawn) | 19.8 | 9.2 | -2.7 | -1.3 | 9.5 | -16.3 | 9410
Cc1ccc(OCC(=O)Nc2nnc(S(=O)(=O)N3CCCCC3)s2)cc1 | 4.8 | 1.9 | 3.0 | 10.3 | 10.0 | -9.0 | 5977
Cn1nccc1C(=O)OCC(=O)Nc1ccccc1Cl | -3.0 | -0.3 | -1.2 | -7.5 | 2.1 | -3.2 | 4495
COc1cc(C=NNC(=O)C(C)Nc2n[nH]c(=O)[nH]c2=O)ccc1O (stereo not drawn) | -0.7 | -0.8 | 7.6 | . | 0.2 | . | .
CC1CC1C(=O)N(C)CC(=O)Nc1ccc(Cl)c(C(F)(F)F)c1 (stereo not drawn) | 10.3 | -0.4 | 0.0 | -0.3 | 2.1 | -10.7 | 5634
Cc1[nH]c2ccccc2c1C=NNC(=O)Cc1cccs1 | -5.3 | 4.2 | -10.6 | . | 2.7 | . | .
CSc1ncc(Cl)c(C(=O)NCc2cccnc2)n1 | 4.5 | -5.8 | 0.6 | -0.1 | -0.5 | -13.8 | 3834
CCOc1ccc(NC(=O)Nc2nnc(CC(=O)NCc3ccccc3)s2)cc1 | 11.1 | 1.1 | -7.2 | 1.2 | 5.7 | -0.5 | 2009
Cc1c(NS(=O)(=O)c2cc(C(=O)Nc3ccc(F)cc3Cl)ccc2Cl)c(=O)n(-c2ccccc2)n1C | 1.8 | -2.2 | 12.2 | . | -2.2 | -19.8 | 4173
Cc1nc(SCC(=O)Nc2cc(S(=O)(=O)N3CCOCC3)ccc2Cl)nc(C)c1C | 1.2 | -5.9 | -3.1 | . | -0.4 | 10.0 | .
O=C(NN=Cc1ccc(Br)o1)/C(=C/c1ccc([N+](=O)[O-])cc1)NC(=O)c1ccccc1 | 7.0 | 7.0 | -6.0 | . | 6.3 | . | .
CCOc1ccccc1CN1CCN(C2CCOCC2)CC1CCO (stereo not drawn) | 13.5 | 6.6 | 4.1 | 8.2 | 1.8 | -16.4 | 3973
CC1=NN(C(=O)c2c(Br)cnn2C)C(O)(C(F)(F)F)C1 (stereo not drawn) | . | . | 0.6 | -3.1 | 17.5 | -11.2 | 2712
CCN(CC)C(=O)CSc1nc(-c2ccccc2)cc(=O)[nH]1 | 9.0 | 2.0 | 6.6 | -1.0 | 3.8 | -21.0 | 4356

Remaining list, next part:
SMILES	Mtb hypoxia inh	Mtb hypoxia inh growth	ugtP null kill	BJeLR lethal	Sa RN4220 lethal	PrP 5UTR inh	Autofluor counter
CSC1=N/C(=C\c2cccc(Cl)c2)C(=O)N1N(C)C	13.4	2.6	15.8	-1.2	1.3	-9.6	6224
CC(=NNC(=O)CNC(=O)c1cccs1)c1ccc(Cl)c(Cl)c1	6.2	2.9	0.3	.	1.8	.	.
O=C(Cc1ccsc1)NCC(c1ccco1)N1CCCCC1 (stereo not drawn)	.	.	5.8	1.9	0.5	-27.2	4732
CCCN1Cc2cccc(C(=O)NC(CC(=O)OCC)c3ccc(OC(C)C)cc3)c2C1=O (stereo not drawn)	8.8	2.5	34.0	-7.5	-1.7	-0.3	2597
O=C(CNC(=O)c1ccc2c(c1)OCCO2)N/N=C/c1ccc(Cl)cc1	.	.	.	-11.1	.	-16.2	2223
Cc1ccccc1C(=O)NN=Cc1ccsc1C	14.1	11.1	5.4	.	4.7	.	.
CC(NC(=O)Cn1nc(-c2ccccc2)c2ccccc2c1=O)c1ccccc1 (stereo not drawn)	5.4	3.8	5.2	-5.7	4.6	-10.4	3658
COc1ccc(-n2cnnc2)cc1	0.2	4.5	6.2	-2.4	3.9	-6.6	.
COc1ccccc1CNC(=O)C(=O)NCC1OCCCN1S(=O)(=O)c1ccc(F)cc1C (stereo not drawn)	4.0	-3.9	0.4	0.8	4.4	-16.1	6485
CC(C)OCCCNc1nc2c(-c3ccccc3)nnn2c2ccccc12	1.3	-1.4	9.1	5.7	-1.6	.	.
COc1ccc(S(=O)(=O)N(c2onc(C)c2Cl)S(=O)(=O)c2ccc(OC)c(OC)c2)cc1OC	12.0	10.6	-0.4	-13.1	2.3	-3.2	3821
CC(=O)C1=C(C)NC(=S)NC1c1cc([N+](=O)[O-])ccc1O (stereo not drawn)	8.6	1.6	0.9	8.5	1.2	-13.8	2708
O=C(Cc1c[nH]c2ccccc12)N1CCN(c2ccccc2)CC1	18.9	5.0	7.7	3.7	4.0	-48.2	3345
COc1cccc(C(=O)Nc2nnc(S(=O)(=O)N3CCOCC3)s2)c1	3.8	6.2	6.6	-10.9	4.8	-10.4	4971
